Vaccinia Venus = qHTS for Stage-Specific Inhibitors of Vaccinia Orthopoxvirus: Venus Reporter Primary qHTS | Vaccinia virus Venus reporter expression, fluorescence | Potency, µM (series often up to 36.5 µM), without a hit: top-dose activity change, negative = inhibition, actives largely listed as inhibitors | actives 0.46% (n = 330,000); active means well fitted inhibition curve with a large enough effect; inconclusive means small, poorly fitted or top-dose-only effect; inactive means no such curve, though single readings can be large or run the other way; tested in A549 cells; also: nearly all actives have a fitted effect of over 30% in size; inactives centre near -10
Vaccinia mCherry = qHTS for Stage-Specific Inhibitors of Vaccinia Orthopoxvirus: mCherry Reporter Primary qHTS | actives 0.63% (n = 310,000) | AID 720579, 2013 | Potency, µM (series often up to 36.5 µM), inactives show at the highest dose activity change, negative = inhibition, actives largely listed as inhibitors | Vaccinia virus mCherry reporter infection, fluorescence; about a quarter of the inactives have no number; active = well fitted inhibition curve with a large enough effect; inconclusive = small, poorly fitted or top-dose-only effect; inactive = no such curve, though single readings can be large or run the other way; tested in A549 cells; also: nearly all actives have a fitted effect of over 35% in size; inactives centre near -10
Starred values were filed as active, the others as inactive; i = inactive; ? = inconclusive; . = no result given; & = joins results of further samples; [ ] = dose if it differs, or a comment. % is scaled to controls: 0 for no effect and ±100 for the full control effect; potency is read from the fitted curve at half-maximal effect.

SMILES	Vaccinia Venus	Vaccinia mCherry
Cc1c(/C(O)=C2\C(=O)C(=O)N(CCN(C)C)C2c2ccccc2)cnn1-c1ccccc1 (centres undefined)	-4%	i
FC(F)(F)c1cccc(N2CCN(C3CC4CCC3C4)CC2)c1 (centres undefined)	-10%	-15%
C=CCNC(=S)NNC(=O)c1ccco1	-6%	-3%
O=C1Nc2c(c(=O)[nH]c(=O)n2-c2ccc(F)cc2)C1(NS(=O)(=O)c1ccc(Cl)cc1)C(F)(F)F (centres undefined)	-2%	-6%
CCOc1cc(C2C(C#N)=C(N)Oc3n[nH]c(CC)c32)ccc1OCCN1CCOCC1 (centres undefined)	8%	-10%
Cc1nn(-c2ccccc2)c2c1C(c1ccc(F)cc1F)C(C#N)=C(N)O2 (centres undefined)	-12%	0%
N#CCN(C(=O)COC(=O)C1CC2CCCC(C1)C2=O)c1ccccc1 (centres undefined)	-12%	i
CCCCC(CC)Cn1c(O)c(/C=C2\C=NN=C2c2ccccc2)sc1=S (centres undefined)	3%	i
CC(=O)Nc1ccc(S(=O)(=O)NN=Cc2ccc(Cl)c(Cl)c2)cc1	-16%	-3%
Cc1ccc(S(=O)(=O)c2nc(S(C)(=O)=O)sc2NCc2ccc3c(c2)OCO3)cc1	-11%	-22%
CCOc1ccc(CCNC(=O)COC(=O)c2cc(S(=O)(=O)N3CCOCC3)ccc2F)cc1OCC	1%	i
CCn1c(SCC(=O)Nc2nccs2)nnc1-c1ccccc1	-9%	-18%
CC1COC2=C1C(=O)C(=O)c1c2ccc2c1CCCC2(C)C (centres undefined)	9%	-5%
CC(C)OC(=O)c1ccc(NC(=O)C2C3CC4OC(=O)C2C4C3)cc1 (centres undefined)	-7%	-18%
CCOC(=O)CC(=O)CSc1nc2ccc(OC)cc2cc1C	-6%	-15%
CC1(C)OC(=O)C=C[C@]2(C)[C@H]3CC[C@@]4(C)[C@H](c5ccoc5)OC(=O)[C@H]5O[C@]54[C@]3(C)C(=O)C[C@@H]12	-16%	-4%
CCOC(=O)C1CCCN(c2c(N3CCN(c4cccc(Cl)c4)CC3)c(=O)c2=O)C1 (centres undefined)	-11%	-9%
Cc1ccc2nc(NS(=O)(=O)c3ccc(Cl)cc3)c(Nc3ccc(C(=O)O)cc3)nc2c1	13%	-5%
COc1cccc(CNCCCSc2nnnn2C)c1OC	-6%	-6%
O=c1n(-c2ccc(Br)cc2)cnn1-c1ncccc1[N+](=O)[O-]	-15%	-11%
CCOC(=O)c1cnc2c(Cl)c(Cl)ccc2c1N1CCN(C)CC1	-16%	-19%
CCCn1c2ccccc2c2cnn(CC(=O)NCCc3ccc(C)cc3)c(=O)c21	-14%	-12%
CCOC(=O)c1[nH]c(C)c(/C(O)=C2\C(=O)C(=O)N(CCN3CCOCC3)C2c2ccco2)c1C (centres undefined)	-16%	i
Cc1cccc(N(CC(=O)O)CC(=O)O)c1	-1%	i
O=C(O)[C@@H]1C[C@H]1[C@@H](NP(=O)(c1ccccc1)c1ccccc1)c1ccccc1	-17%	i
C[C@H](CO)N1C[C@H](C)[C@@H](CN(C)C(=O)NC2CCCCC2)Oc2c(NS(=O)(=O)c3ccc(F)cc3)cccc2C1=O	-22%	-21%
C=CCNC(=O)c1ccc(-c2nc3ccccc3nc2-c2ccccc2)cc1	0%	15%
CCOC(=O)CSc1nc(CC)nc2ccccc12	-6%	-16%
Cc1cccc(C(=O)Oc2c(Sc3ccccc3)c(C)nn2C(C)(C)C)c1	-19%	-27%
Cc1ccc(-n2cc(CNCCCN3CCCC3=O)c(-c3ccc(F)cc3)n2)cc1	-27%	i
O=C(NCc1cccc(Cl)c1)NCc1noc2ccccc12	-3%	-4%
Cc1ccc(O)c(CC(C)C)n1	6%	.
O=C1CCCN1S(=O)(=O)c1ccccc1	-10%	-9%
CCC(CC)C(=O)Nc1nnc(SCc2cc(=O)n3cccc(C)c3n2)s1	-24%	i
CC1(c2nnnn2-c2ccc3c(c2)OCCO3)CCC(=O)N1CCc1c[nH]c2ccccc12 (centres undefined)	-1%	-5%
CC(C)Cc1nnc(NC(=O)CCc2c[nH]c3ccccc23)s1	-25%	-12%
CCc1ccc(N2C(=O)CS(=O)(=O)C23C(=O)N(Cc2ccccc2)c2ccccc23)cc1 (centres undefined)	-1%	-5%
CCOc1cc(/C=N/N2C(=O)NC3(CCCCC3)C2=O)cc(Br)c1O	-19%	-1%
CCOC(=O)c1c(-c2ccc(C)cc2)csc1NC(=O)c1nc(SC(C)C)ncc1Cl	-4%	-1%
COc1ccc(Cl)cc1NC(=O)CCN1CCN(c2ccccc2C)CC1	0%	i
O=C1NCN(c2ccccc2)C12CCN(C(c1ccccc1OC(F)(F)F)c1nnnn1-c1ccc3c(c1)OCCO3)CC2 (centres undefined)	-8%	i
CC(=O)Nc1ccccc1NC(=O)CN(C)S(=O)(=O)c1ccc(C)cc1	-16%	-8%
CCCCCCSc1ccc(-c2nc3cnccn3c2NC2CCCCC2)cc1	3%	-8%
CC(C)C(C(=O)OCC(=O)c1cccc([N+](=O)[O-])c1)N1C(=O)[C@@H]2[C@H]3CC[C@H](C3)[C@@H]2C1=O (some centres undefined)	-10%	-23%
CCCN(CCC)CCCNC(=O)c1cc2c(=O)oc3ccc(C)cc3c2s1	-7%	8%
COc1cccc(CNc2nc3cc(-c4cccc(OC)c4)sc3c(=O)n2C)c1	-29%	-3%
COc1ccc(NS(=O)(=O)c2cccc(N3CC(O)=C(c4ccccc4)C3=N)c2)cc1	-13%	9%
CCN(CC)CCCn1c2c(c(SCC(=O)Nc3cccc(C(C)=O)c3)nc1=O)CCC2	-14%	0%
CSc1ccc(CNC(=O)C(C)n2nc(C)c3c(C)n(-c4ccccc4)nc3c2=O)cc1 (centres undefined)	-13%	-9%
CCOc1ccc(S(=O)(=O)N2CCN(C(=O)c3oc4ccccc4c3C)CC2)cc1	-24%	-11%

Profiles from above. Screens in order: Vaccinia Venus | Vaccinia mCherry
`COc1cccc(CNc2nc3cc(-c4cccc(OC)c4)sc3c(=O)n2C)c1` as listed: -29% | -3%
`CSc1ccc(CNC(=O)C(C)n2nc(C)c3c(C)n(-c4ccccc4)nc3c2=O)cc1` (centres undefined) as listed: -13% | -9%
`CCCN(CCC)CCCNC(=O)c1cc2c(=O)oc3ccc(C)cc3c2s1` as listed: -7% | 8%
`O=C1NCN(c2ccccc2)C12CCN(C(c1ccccc1OC(F)(F)F)c1nnnn1-c1ccc3c(c1)OCCO3)CC2` (centres undefined) as listed: -8% | i

New compounds follow:
SMILES	Vaccinia Venus	Vaccinia mCherry
O=C(O)c1ccc2c(c1)C(=O)N(c1ccc(/C=C/C(=O)c3ccccc3)cc1)C2=O	-8%	-7%
O=C(Nc1ccnn1C1CCN(Cc2cccc(O)c2)CC1)C1CCCC1	-3%	-15%
COc1cccc(C(NC(C)=O)c2nc(-c3ccoc3)cs2)c1 (centres undefined)	5%	9%
CC(=O)/C(C#N)=C1\NC(=O)C(Cc2ccccc2Cl)S1 (centres undefined)	57%[activator]	?
COc1ccc([N+](=O)[O-])cc1N1C(=O)c2cccc3cccc(c23)C1=O	-5%	-15%
COc1ccc(C2N(C(=O)c3ccccc3)CCN2C(=O)c2ccccc2)cc1	7%	-4%
Cc1cccc(NC(=O)CCS(=O)(=O)c2cccc3nsnc23)c1C	-16%&-7%	-30%
O=[N+]([O-])c1cccc(/C([O-])=C(/C(=S)Nc2ccccc2)[n+]2ccccc2)c1	-5%	i
CC(C)(C)[C@H]1C=C(C(=O)N2CCN(Cc3ccccc3)CC2)O[C@@H](OCCCCO)C1	-10%	i
CN(C)CCN1CCN(C2CN(Cc3cn(Cc4cccc(Cl)c4)nn3)S(=O)(=O)C2)CC1 (centres undefined)	1%	2%
O/N=C/c1ccc(OCC(O)COc2ccc(/C=N/O)cc2)cc1	1%	.
O=C(NCCCN1CCOCC1)c1cc(-c2cccc(O)c2)on1	-6%	-30%
CC(C)CC(c1nnnn1C1CCCC1)N1CCC(C(N)=O)CC1 (centres undefined)	-1%	i
Cc1ccccc1NC(=O)c1sc2nc(-c3cc4ccccc4oc3=O)[nH]c(=O)c2c1C	-1%	-9%
CC(=O)c1cc2c(s1)-c1cc(F)ccc1OC2	-29%	-20%
O=C(NCCN1CCOCC1)c1cccc(S(=O)(=O)Nc2cc(Cl)ccc2Cl)c1	-15%	-20%
COC(=O)C1C2C=CC3(CN(c4cccc(C)c4)C(=O)C13)O2 (centres undefined)	-9%	-21%
C=CCc1ccccc1OCCSc1nc2ccc([N+](=O)[O-])cc2s1	-8%	-13%
COc1ccc(N2CCN(C(=O)CNS(=O)(=O)c3ccc(C)c(C)c3)CC2)cc1	-5%	-18%
O=C(O)C1CCCCC1C(=O)N1CCCC1 (centres undefined)	-11%	i

Filtered by structure: the entries above containing a tert-butyl group
SMILES	Vaccinia Venus	Vaccinia mCherry
Cc1cccc(C(=O)Oc2c(Sc3ccccc3)c(C)nn2C(C)(C)C)c1	-19%	-27%
CC(C)(C)[C@H]1C=C(C(=O)N2CCN(Cc3ccccc3)CC2)O[C@@H](OCCCCO)C1	-10%	i

The list continues.
SMILES	Vaccinia Venus	Vaccinia mCherry
COCCn1cnc2c1c(=O)n(CC(=O)NC1CCCCC1)c(=O)n2Cc1ccccc1	-5%	i
C=CCOc1ccccc1CNn1c(C)n[nH]c1=S	-9%	i
Cc1cc(SCC(=O)c2cccs2)n2nc(C)c(-c3ccccc3)c2n1	?	?
COC(=O)C1=C(c2ccc(OC(F)(F)F)cc2)C[C@@H]2CC[C@H]1N2C(=O)NC1CCCCC1	?	-10%
Cc1ccc(-n2nc3c(N4CCC(C(=O)NCc5ccccc5Cl)CC4)nnc(C)c3c2C)cc1	10µM*	?
CC(=O)Nc1ccc(S(=O)(=O)N2CCN(C(=O)c3ncoc3-c3ccccc3)CC2)cc1	-14%	-15%
CCCC(=O)N(c1ccccc1)C1C=CS(=O)(=O)C1 (centres undefined)	-9%	-1%
Fc1ccc(Nc2nc(-c3ccncc3)cs2)cc1	-21%	-8%
c1ccc2sc(NN=C3CCCC3)nc2c1	4%	-13%
COc1cc(C(=O)NNC(=O)c2cc(C)[nH]n2)cc(OC)c1OC	-19%	-10%
Cc1c(NC(=O)COC(=O)c2ccc(F)c(S(=O)(=O)N3CCOCC3)c2)c(=O)n(-c2ccccc2)n1C	-6%	6%
OCC1=C[C@@H](O)[C@@H]2C=CO[C@@H](O[C@@H]3O[C@H](CO)[C@@H](O)[C@H](O)[C@H]3O)[C@H]12	0%	i
CCOC(=O)c1cccc(NC(=O)C2(S(=O)(=O)c3ccc(C)cc3)CC2)c1	2%&-17%	0%&-4%
Cc1cc(C(=O)CCl)c(C)n1-c1cccc([N+](=O)[O-])c1	-3%	i
Cc1ccc(CNC(=O)C(=O)Nc2c3c(nn2-c2ccccc2)CSC3)cc1	?	?
CC(=O)C[C@@H](O)CC(=O)[C@@H]1OC(=O)CCCCCCc2ccccc21	-19%	i
Oc1c(C(c2ccccc2Cl)N2CCN(Cc3ccccc3)CC2)sc2nc(-c3ccco3)nn12 (centres undefined)	-4%	-9%
Cc1ccc(-c2nc(CN3CCCCC3CCN3CCCC3=O)c(C)o2)o1 (centres undefined)	-5%	-8%
Cc1ccc(S(=O)(=O)N2CCOCC2)cc1C(=O)Nc1cc(Cl)ccc1N1CCOCC1	-13%	i
O=C(CN1C(=O)c2cccc3cccc(c23)C1=O)N1CCN(c2ccccn2)CC1	-7%	1%

Arranged by molecular weight (ascending): five of the compounds above.
SMILES	Vaccinia Venus	Vaccinia mCherry
FC(F)(F)c1cccc(N2CCN(C3CC4CCC3C4)CC2)c1 (centres undefined)	-10%	-15%
Cc1nn(-c2ccccc2)c2c1C(c1ccc(F)cc1F)C(C#N)=C(N)O2 (centres undefined)	-12%	0%
O=C(Nc1ccnn1C1CCN(Cc2cccc(O)c2)CC1)C1CCCC1	-3%	-15%
O=C(CN1C(=O)c2cccc3cccc(c23)C1=O)N1CCN(c2ccccn2)CC1	-7%	1%
COc1ccc(NS(=O)(=O)c2cccc(N3CC(O)=C(c4ccccc4)C3=N)c2)cc1	-13%	9%

Continuation.
SMILES	Vaccinia Venus	Vaccinia mCherry
Cc1ccc(NS(=O)(=O)c2ccc3c(c2)C(C(C)C)C(=O)N3)cc1C (centres undefined)	-7%	-17%
CC(=O)Nc1nnc(/C=C/c2cccc([N+](=O)[O-])c2)s1	-1%	-14%
Cc1cc(=O)[nH]c(SCC(=O)Nc2ccccc2C)n1	-7%	i
CCOc1cccc(OCCOCCN(C)Cc2ccccc2)c1	-9%	i
CCC(C)C(=O)OC1C(O)C2C(CN3CC(C)CCC3[C@]2(C)O)C2C[C@]34O[C@@]5(O)C(OC(=O)C(C)(O)CC)CCC3(C)C5C(OC(C)=O)C(OC(C)=O)C4[C@@]21O (some centres undefined)	-7%	-14%
O=C1CN(C(=O)COc2ccc(Cl)c(Cl)c2)c2ccccc2N1	-16%	i
CC(C)c1ccc(NC2CCCN(C(=O)c3cscn3)C2)cc1 (centres undefined)	-4%	?
COc1ccc2cc(CCNC(=O)c3c(-c4ccccc4Cl)noc3C)c(=O)[nH]c2c1	?	-10%
CC(NCc1cccn1C)c1ccccc1 (centres undefined)	-6%	-14%
Oc1c(C(Nc2cccnc2)c2ccc(C(F)(F)F)cc2)ccc2cccnc12 (centres undefined)	?	8.9µM*
COCCN(C(=O)CSc1nnc(-c2ccccc2F)o1)c1c(N)n(Cc2ccccc2)c(=O)[nH]c1=O	-9%	i
COc1cccc(C2c3c(-c4ccccc4O)n[nH]c3C(=O)N2Cc2cccnc2)c1 (centres undefined)	-9%	-15%
O=C(NCCc1ccc2c(c1)OCCO2)c1cc(F)cc(F)c1	-16%	-16%

High-throughput results as filed in PubChem BioAssay.
